Source: PubChem (Broad Institute)
AF4-AF9 inh: inhibitors of AF4 peptide binding to AF9, primary screen, biochemical, AlphaScreen, biotin-AF4 peptide, FLAG-AF9, single point; inhibition, % at 10 µM; 350,000 compounds, 0.47% hits;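 active = every replicate reaching a set inhibition limit, whatever the replicate mean, cut at about 25% in these data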;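 note: 0% = plate neutral control median and 100% = total signal loss; the record names both 10 and 1 µM as test concentration; the first replicate is given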
Target sequence (P42568 whole entry, looked up): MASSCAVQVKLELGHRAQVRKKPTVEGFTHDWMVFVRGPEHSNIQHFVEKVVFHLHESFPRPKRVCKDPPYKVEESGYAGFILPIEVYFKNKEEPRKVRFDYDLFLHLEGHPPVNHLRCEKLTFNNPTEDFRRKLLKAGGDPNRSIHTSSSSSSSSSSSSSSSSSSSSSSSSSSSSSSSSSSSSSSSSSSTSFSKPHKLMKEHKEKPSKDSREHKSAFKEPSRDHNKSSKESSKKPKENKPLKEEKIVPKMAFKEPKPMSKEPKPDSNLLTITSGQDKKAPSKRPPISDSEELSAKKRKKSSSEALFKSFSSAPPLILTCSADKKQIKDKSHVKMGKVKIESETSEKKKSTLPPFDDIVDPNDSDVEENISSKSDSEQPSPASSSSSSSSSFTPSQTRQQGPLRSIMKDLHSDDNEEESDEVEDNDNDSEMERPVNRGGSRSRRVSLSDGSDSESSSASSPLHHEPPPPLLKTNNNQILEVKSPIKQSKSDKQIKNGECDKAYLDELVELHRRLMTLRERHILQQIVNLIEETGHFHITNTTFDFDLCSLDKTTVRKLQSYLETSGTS
Ecoli rRNA inh: reduced GFP signal of wild-type E. coli, primary screen, bacterial rRNA inhibitor project, GFP/RFP fluorescence, OD600, single point; E. coli WT GFP vs humanized-ribosome RFP mutants, 24 h; active compounds read low; DMSO median 0, no signal -100; GFP signal change (wild-type ribosome), % (no concentration beside the values); 350,000 compounds, 1.6% hits;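 active = significant combined selectivity score with lowered wild-type GFP, culture density cut under 30%, mutant RFP and density less affected; inactive = any of these conditions unmet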; note: one replicate is shown; some compounds called inactive have numbers as strong as hits
Ecoli rRNA inh OD600: further read-out of Ecoli rRNA inh, marked with its call; OD600 change, %; measured here: OD600 growth;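 optical density of the mix in the first replicate; 0 = DMSO median and -100 = no signal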
Ecoli rRNA inh RFP: second read-out of Ecoli rRNA inh, no call of its own (marks repeat the call); RFP signal change, %; measured here: RFP humanized mutant strains;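 first replicate; 0 = DMSO median and -100 = no signal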
Active calls of the source: *; & = joins results of further samples.

molecule | AF4-AF9 inh | Ecoli rRNA inh | Ecoli rRNA inh OD600 | Ecoli rRNA inh RFP
CCCC#Cc1ccc2c(c1)O[C@@H](CN(C)C(=O)Nc1ccccc1F)[C@H](C)CN([C@H](C)CO)S2(=O)=O | 5.0 | -7.0 | -26.2 | 3.7
C[C@H](CO)N1C[C@H](C)[C@@H](CN(C)Cc2ccc(Oc3ccccc3)cc2)Oc2ccc(NC(=O)CCCN(C)C)cc2C1=O | 21.5 | -0.5 | -0.3 | 6.1
CCCNC(=O)[C@H]1[C@H](CO)[C@H]2Cn3c(ccc(C4=CCCC4)c3=O)[C@H]2N1C(=O)CC1CC1 | -0.4 | 1.7 | 1.4 | -0.7
CNC(=O)C1(C)CCN1C(=O)c1ccccc1CCc1ccccc1 (configuration not stated) | 0.6 | 4.5 | -3.4 | 2.8
C[C@H](CO)N1C[C@H](C)[C@@H](CN(C)S(=O)(=O)c2cn(C)cn2)Oc2ccc(NC(=O)Nc3ccc(F)cc3)cc2C1=O | -1.5 | 2.1 | 10.0 | -0.7
C[C@@H]1CN([C@@H](C)CO)C(=O)c2cc(NS(C)(=O)=O)ccc2O[C@@H](C)CCCCO[C@H]1CN(C)C(=O)CCC(F)(F)F | -4.5 | 1.0 | 7.7 | 0.8
C[C@H]1CCCCO[C@H](CN(C)C(=O)CCC(F)(F)F)[C@@H](C)CN([C@@H](C)CO)C(=O)c2cc(NC(=O)NC3CCCCC3)ccc2O1 | -0.4 | -2.8 | -4.8 | 1.7
COc1ccc(S(=O)(=O)Nc2ccc3c(c2)C(=O)N([C@@H](C)CO)C[C@@H](C)[C@H](CN(C)C(=O)c2ccncc2)OCCCC[C@@H](C)O3)cc1 | -1.8 | -2.3 | -10.0 | -0.2
C[C@H]1CN([C@@H](C)CO)C(=O)c2cc(/C=C/c3ccccc3)cnc2O[C@H]1CN(C)C(=O)Cc1cccnc1 | -1.1 | -6.0 | -4.5 | -1.6
C[C@@H]1CCCCO[C@H](CN(C)C(=O)Cc2ccccc2)[C@@H](C)CN([C@H](C)CO)C(=O)c2cc(NC(=O)Nc3ccc(F)cc3)ccc2O1 | 0.7 | 1.6 | -2.7 | 0.2
C[C@H](CO)N1C[C@H](C)[C@H](CN(C)Cc2ccccc2)Oc2ncc(-c3cc4ccccc4o3)cc2C1=O | 12.6 | -44.0 | -70.2 | 3.9
Cc1ccc(S(=O)(=O)Nc2ccc3c(c2)CC(=O)N([C@@H](C)CO)C[C@H](C)[C@@H](CN(C)Cc2ccc(C(=O)Nc4ccccc4N)cc2)O3)cc1 | -0.5 | -1.6 | -7.4 | 2.1
O=C(c1ccccc1)N1C[C@@H]2[C@H](c3ccccc31)[C@@H](CO)N2C(=O)CN1CCOCC1 | -4.7 | 2.4 | 3.7 | -0.6
COCC#Cc1cnc2c(c1)C(=O)N([C@@H](C)CO)C[C@H](C)[C@H](CN(C)S(=O)(=O)c1ccccc1)O2 | -2.9 | 1.1 | 13.1 | -1.0
C[C@@H]1CN([C@@H](C)CO)C(=O)CCCn2nncc2CO[C@H]1CN(C)C(=O)OCc1ccccc1 | 0.6&-0.1 | -1.2&-0.6 | 0.8&1.1 | -1.9&-1.4
Cc1ccc(-c2cnc3c(c2)C(=O)N([C@@H](C)CO)C[C@@H](C)[C@@H](CN(C)C(=O)CN(C)C)O3)cc1 | -0.7 | -0.7 | -0.4 | -1.9
CCCC#Cc1ccc([C@H]2[C@H](CO)N3C(=O)CN(C(=O)c4ccccn4)C[C@@H]23)cc1 | -0.7 | 2.4 | -4.9 | 0.3
CCCN(C)C[C@H]1OCCCC[C@@H](C)Oc2ccc(NC(=O)CCC(F)(F)F)cc2C(=O)N([C@H](C)CO)C[C@H]1C | 0.2 | 2.6 | -1.1 | -0.7
Cc1ccccc1S(=O)(=O)N1[C@@H]2c3cccc(=O)n3C[C@H]1[C@H](CO)[C@H]2C(=O)N1CCOCC1 | -2.1 | 1.8 | -0.6 | -2.7
Cn1cnc(S(=O)(=O)N[C@@H]2C=C[C@H](CC(=O)NCC3CCCCC3)O[C@@H]2CO)c1 | -0.1 | 3.1 | 0.5 | -3.3
CC(C)NC(=O)Nc1ccc2c(c1)CC(=O)N([C@H](C)CO)C[C@H](C)[C@H](CN(C)C(=O)NC1CCCCC1)O2 | -3.6 | 3.2 | 9.9 | -0.3
O=C(N[C@H]1CC[C@H](CCn2cc(C3(O)CCCC3)nn2)O[C@H]1CO)C1CCOCC1 | -2.0 | 3.9 | -9.0 | 1.1
C[C@H](CO)N1C[C@H](C)[C@H](CN(C)C(=O)Nc2ccccc2)Oc2ccc(NC(=O)Cc3ccccc3)cc2C1=O | -1.4 | -3.3 | -0.9 | -1.8
CC=Cc1ccc2n(c1=O)C[C@@H]1[C@@H](CO)[C@H](C(=O)NCCC)N(Cc3cccc(F)c3)[C@H]21 (mixture of isomers) | 2.9 | 5.8 | -4.8 | 4.2
c1ccc(-c2csc(Nc3ccc4c(c3)OCO4)n2)cc1 | -6.3 | -34.9 | -57.7 | -14.9
C[C@@H]1CCCCO[C@H](CN(C)S(=O)(=O)c2ccccc2)[C@H](C)CN([C@H](C)CO)C(=O)c2cc(NC(=O)Cc3ccccc3)ccc2O1 | -0.6 | -3.0 | -3.6 | -0.2
COc1ccc(S(=O)(=O)Nc2ccc3c(c2)C(=O)N([C@@H](C)CO)C[C@@H](C)[C@@H](CN(C)Cc2ccc(Oc4ccccc4)cc2)O3)cc1 | 1.0 | 3.7 | -0.5 | 12.9
C[C@H](CO)N1C[C@H](C)[C@@H](CN(C)Cc2ccc(Oc3ccccc3)cc2)Oc2c(NC(=O)C3CCOCC3)cccc2C1=O | 6.6 | -8.3 | -15.8 | 2.7
C[C@@H]1CN([C@@H](C)CO)C(=O)c2cc(NS(=O)(=O)c3cn(C)cn3)ccc2O[C@@H](C)CCCCO[C@@H]1CN(C)C(=O)CCC(F)(F)F | -7.6 | 2.5 | 1.4 | 1.3
C[C@H]1CN([C@@H](C)CO)S(=O)(=O)c2ccc(-c3ccncc3)cc2O[C@@H]1CN(C)Cc1ccccn1 | -3.8 | -5.6 | -2.1 | -1.2
COc1ccc(-c2ccccc2)cc1NC(=O)C1(C)CCN1C(=O)C(C)C (configuration not stated) | -0.4 | -23.1 | -32.4 | -10.2
CCCNC(=O)N1C[C@H]2[C@@H](c3ccccc31)[C@@H](CO)N2C(=O)Nc1ccccc1F | -0.8 | 1.3 | 12.8 | 0.2
CC(C)CN(C[C@H]1N[C@H](CO)[C@@H]1c1ccccc1)C(=O)CN(C)C | -0.4 | 2.3 | 8.1 | -5.7
C[C@@H]1CN([C@H](C)CO)S(=O)(=O)c2ccc(C#C[C@@H](C)O)cc2O[C@H]1CN(C)Cc1ccc(-c2ccccc2)cc1 | -1.0 | -4.2 | -7.2 | 5.8
C[C@@H]1CN([C@@H](C)CO)S(=O)(=O)c2ccc(/C=C/c3ccccc3)cc2O[C@H]1CN(C)C | 19.3 | -0.8 | 5.2 | 3.2
COc1ccc(S(=O)(=O)N(C)C[C@@H]2OCCCC[C@H](C)Oc3ccc(NC(=O)Cc4ccccc4)cc3C(=O)N([C@H](C)CO)C[C@H]2C)cc1 | -0.6 | -1.0 | -1.0 | 0.3
CC(=O)C1=C(C)NC(=S)NC1c1ccc(F)cc1 (configuration not stated) | -1.6 | 10.1 | 10.0 | 1.7
CO[C@H]1CN(C)C(=O)c2ccc(NC(=O)C3CC3)cc2OC[C@@H](C)N(C(=O)c2cnccn2)C[C@@H]1C | 1.9 | 2.5 | 1.2 | -1.5
C[C@H]1CN([C@@H](C)CO)S(=O)(=O)c2ccc(C3=CCCCC3)cc2O[C@@H]1CN(C)Cc1cncnc1 | 7.5 | -30.9 | -59.8 | 23.6
CC(C)C#Cc1ccc2c(c1)O[C@H](CN(C)C(=O)CC1CC1)[C@@H](C)CN([C@@H](C)CO)S2(=O)=O | 6.4 | -7.4 | -33.6 | -3.3
C[C@H](O)C#Cc1ccc2c(c1)O[C@@H](CN(C)Cc1cccnc1)[C@H](C)CN([C@@H](C)CO)S2(=O)=O | 0.8 | -5.1 | -7.1 | -2.5
O=C(Cc1ccncc1)Nc1ccc2c(c1)[C@H]1C[C@@H](CC(=O)NC3CCCCC3)O[C@@H](CO)[C@H]1O2 | -1.1 | -2.1 | 0.7 | -2.8
COc1ccccc1NC(=O)N[C@@H]1C=C[C@@H](CC(=O)N[C@H](C)c2ccccc2)O[C@@H]1CO | -1.6 | 2.8 | 6.9 | -1.2
COc1ccc(C#Cc2ccc3c(c2)[C@@H]2[C@@H](CCN2C(=O)NC(C)C)[C@@H](CO)N3C)cc1 | 4.5 | 4.6 | 7.5 | -0.6
C[C@@H]1CN([C@@H](C)CO)C(=O)c2cc(C3=CCCCC3)cnc2O[C@@H]1CN(C)Cc1ccccc1C(=O)O | -0.6 | 3.9 | 8.9 | -2.6
C[C@H]1CN([C@@H](C)CO)C(=O)c2cc(NC(=O)CCC(F)(F)F)ccc2O[C@H]1CN(C)C(=O)Nc1ccccc1 | -4.6 | -0.5 | -0.5 | -1.1
C[C@@H]1CN([C@@H](C)CO)S(=O)(=O)c2ccc(C3=CCCC3)cc2O[C@H]1CN(C)C(=O)Nc1ccc2c(c1)OCO2 | 3.5 | 2.2 | 2.2 | 1.6
CO[C@@H]1CN(C)C(=O)c2cc(NS(=O)(=O)c3ccccc3C)ccc2OC[C@H](C)NC[C@H]1C | -1.6 | 2.1 | 3.4 | -0.8
O=C(c1cnccn1)N1CC(=O)N2[C@H](CO)[C@@H](c3ccc(C#CC4CCCC4)cc3)[C@@H]2C1 | 4.1 | -2.0 | -20.1 | -2.7
CN1CCN(C(=O)C[C@@H]2CC[C@@H]3[C@H](COC[C@H](O)CN3CC3CCCCC3)O2)CC1 | -1.9 | -4.1 | -0.7 | 5.3

Compound profiles (already shown). Values in the order: AF4-AF9 inh | Ecoli rRNA inh | Ecoli rRNA inh OD600 | Ecoli rRNA inh RFP
Entry for `CC(C)CN(C[C@H]1N[C@H](CO)[C@@H]1c1ccccc1)C(=O)CN(C)C` → -0.4 | 2.3 | 8.1 | -5.7
Entry for `C[C@H](CO)N1C[C@H](C)[C@H](CN(C)C(=O)Nc2ccccc2)Oc2ccc(NC(=O)Cc3ccccc3)cc2C1=O` → -1.4 | -3.3 | -0.9 | -1.8
Entry for `CCCN(C)C[C@H]1OCCCC[C@@H](C)Oc2ccc(NC(=O)CCC(F)(F)F)cc2C(=O)N([C@H](C)CO)C[C@H]1C` → 0.2 | 2.6 | -1.1 | -0.7

(listing goes on)
molecule | AF4-AF9 inh | Ecoli rRNA inh | Ecoli rRNA inh OD600 | Ecoli rRNA inh RFP
Cc1noc(C)c1NC(=O)N(C)C[C@H]1Oc2ccc(NC(=O)CCN3CCOCC3)cc2CC(=O)N([C@H](C)CO)C[C@@H]1C | -11.0 | -0.7 | 6.3 | 1.4
O=C(C[C@H]1C/C=C\CC[C@@H](Cc2ccc(F)cc2)C(=O)OC[C@H]2CCCN2C1=O)N[C@H](CO)Cc1ccccc1 | -0.7 | -37.0 | -72.5 | -3.9
C[C@@H]1CN([C@H](C)CO)C(=O)c2cccc(NC(=O)c3nc4ccccc4s3)c2O[C@H]1CN(C)S(=O)(=O)c1ccccc1 | -4.6 | -2.0 | 2.6 | -4.1
COc1ccc(NC(=O)Nc2ccc3c(c2)C(=O)N([C@@H](C)CO)C[C@@H](C)[C@H](CN(C)Cc2ccc4c(c2)OCO4)O3)cc1 | 13.3 | -3.9 | -17.8 | -2.3
COc1ccc(S(=O)(=O)Nc2ccc3c(c2)C(=O)N([C@H](C)CO)C[C@H](C)[C@H](CN(C)S(=O)(=O)c2cccs2)OCCCC[C@@H](C)O3)cc1 | -0.6 | -0.4 | -1.0 | 0.1
C[C@H](NC(=O)C[C@@H]1C[C@H]2c3cc(NC(=O)Nc4ccc(C(F)(F)F)cc4)ccc3O[C@H]2[C@H](CO)O1)c1ccccc1 | -0.9 | -22.7 | -62.6 | 15.1
Cc1noc(C)c1S(=O)(=O)Nc1ccc2c(c1)C(=O)N([C@@H](C)CO)C[C@@H](C)[C@@H](CN(C)C(=O)Cc1ccccc1)OCCCC[C@@H](C)O2 | 2.7 | -2.0 | -7.8 | 1.3
O=C(c1cccc(F)c1)N1CC(=O)N2[C@H](C1)[C@@H](c1ccc(C3=CCCC3)cc1)[C@@H]2CO | 1.6 | -4.3 | -52.0 | 7.1
COc1cccc(-c2ccc3c(c2)[C@@H]2[C@@H](CCN2C(=O)c2ccccn2)[C@H](CO)N3)c1 | 5.8 | -2.9 | -6.8 | -2.6
COCC(=O)N1CC(=O)N2[C@H](CO)[C@H](c3ccc(Br)cc3)[C@H]2C1 | -3.6 | 2.3 | 16.2 | -2.1
C[C@@H]1CN([C@@H](C)CO)C(=O)c2cc(N(C)C)ccc2O[C@H]1CN(C)C | -3.0 | 2.1 | 2.2 | 0.7
C[C@@H]1CN([C@@H](C)CO)C(=O)c2cc(-c3cccnc3)cnc2O[C@@H]1CN(C)C(=O)C1CC1 | -2.5 | 0.6 | 1.6 | -0.8
CN(C)C(=O)C[C@H]1CC[C@H]2[C@@H](COC[C@H](O)CN2C(=O)C2CCOCC2)O1 | -2.8 | 6.9 | 12.2 | 34.6

A portion of the library; count on the stated rates, not on these rows.
